KAT2A inh: qHTS Assay for Inhibitors of GCN5L2 | Histone acetyltransferase KAT2A (Homo sapiens), Q92830 | GCN5L2 HAT assay, ThioGlo1 CoA-SH fluorescence | Potency, µM (titrated, usually from 58.9 µM), for the others: top-dose activity change, negative = inhibition, hits mostly inhibitors | 390,000 tested, 0.21% active | AID 504327, 2011
Target sequence (Q92830 whole entry, looked up): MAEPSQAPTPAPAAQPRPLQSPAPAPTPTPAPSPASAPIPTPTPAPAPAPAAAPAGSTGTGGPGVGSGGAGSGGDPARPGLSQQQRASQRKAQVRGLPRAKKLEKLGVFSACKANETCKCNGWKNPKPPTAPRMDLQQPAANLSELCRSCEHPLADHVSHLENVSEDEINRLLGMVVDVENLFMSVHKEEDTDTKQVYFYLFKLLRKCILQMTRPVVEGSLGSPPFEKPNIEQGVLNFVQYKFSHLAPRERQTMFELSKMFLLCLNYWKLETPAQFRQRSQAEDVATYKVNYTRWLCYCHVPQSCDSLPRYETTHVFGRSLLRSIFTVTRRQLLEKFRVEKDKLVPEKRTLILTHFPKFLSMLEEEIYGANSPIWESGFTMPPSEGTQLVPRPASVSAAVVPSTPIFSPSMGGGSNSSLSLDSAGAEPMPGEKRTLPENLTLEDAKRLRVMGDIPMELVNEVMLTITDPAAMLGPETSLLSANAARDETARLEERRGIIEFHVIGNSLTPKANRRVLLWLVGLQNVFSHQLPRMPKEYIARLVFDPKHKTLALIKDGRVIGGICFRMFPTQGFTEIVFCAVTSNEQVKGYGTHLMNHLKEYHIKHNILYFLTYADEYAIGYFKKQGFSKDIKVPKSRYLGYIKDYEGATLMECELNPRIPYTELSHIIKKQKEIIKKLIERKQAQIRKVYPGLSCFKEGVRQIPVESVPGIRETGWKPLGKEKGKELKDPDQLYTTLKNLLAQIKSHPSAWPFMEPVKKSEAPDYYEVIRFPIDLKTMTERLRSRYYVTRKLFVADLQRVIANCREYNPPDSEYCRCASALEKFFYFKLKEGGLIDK
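GCN5L2 (20nM final) in 50mM HEPES, 0.1mM EDTA pH 7.5, 0.01% Tween-20 was preincubated 15 min at room temperature with compound, then given ThioGlo1 (50uM), H3(1-25) peptide (75uM) and acetyl-CoA (70uM); CoA-thiol fluorescence (Ex340/Em540) was read at 0 and 20 min.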
N370S GC: qHTS Assay for Inhibitors and Activators of N370S glucocerebrosidase as a Potential Chaperone Treatment of Gaucher Disease; N370S GC spleen homogenate, 4MU-glucoside fluorescence; Potency, µM (doses to about 59.4 µM), for the others: at the highest dose activity change, negative = inhibition, usual class: inhibitors; AID 2101, 2009; Lysosomal acid glucosylceramidase (Homo sapiens), P04062; 330,000 tested, 0.092% active;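 also: 0% = full enzyme activity and -100% = no enzyme basal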
* hit, by the source's call; ? = inconclusive; · = no result given; [ ] = another dose, or the depositor's remark. Calls follow the shape of the dose curve; as a rule, active = well fitted curve in the direction sought with a large enough effect; inconclusive = small, poorly fitted or top-dose-only effect, or another doubt; inactive = no such curve, though single readings can be large; an effect the other way counts as inactive or inconclusive. Unless noted, % is scaled to controls: 0 for no effect and ±100 for the full control effect; potency is read from the fitted curve at half-maximal effect.

Each structure is followed by: KAT2A inh	N370S GC
> COc1ccc(CC2S/C(=N/N=C/c3ccc(O)cc3)NC2=O)cc1 (stereo not given)
→ -2%	-20%
> COc1cc2c(cc1OC)CN(CC(=O)Nc1cccc(C)c1)CC2
→ 0%	-8%
> COc1ccc(N2CCN(CC(O)COc3ccccc3[N+](=O)[O-])CC2)cc1 (stereo not given)
→ -2%	-10%
> COc1cc(S(=O)(=O)N2CCOCC2)ccc1NC(=O)CN1c2cccc3cccc(c23)S1(=O)=O
→ -6%	4%
> O=C1C=C(c2ccccc2)C[C@@H](c2ccc3c(c2)OCO3)C1
→ -3%	·
> O=C(NCCCn1ccnc1)c1nc(Cn2cc(Br)cn2)no1
→ ?	-10%
> O=C(CCN1C(=O)C2CCCCC2C1=O)Nc1nc2c(F)cc(F)cc2s1 (stereo not given)
→ 0%	·
> Cc1cc(C)c(NS(=O)(=O)c2ccc3c(c2)NC(=O)C(C)C(=O)N3)c(C)c1 (stereo not given)
→ -22%	-17%
> Cc1ccc(C)c(S(=O)(=O)N2CCN(CC(=O)Nc3cc(C)on3)CC2)c1
→ -1%	0%
> CC(C(=O)Nc1sc2c(c1C(=O)NCC1CCCO1)CCC2)N1C(=O)c2ccccc2C1=O (stereo not given)
→ 5%	12%
> Cc1ccc(S(=O)(=O)N2CCC(C(=O)OCC(=O)N(C)C3CCCCC3)CC2)cc1C
→ 8%	2%
> CN(C(=O)c1ccno1)c1nnc(-c2cnccn2)s1
→ -1%	2%
> COCc1cc(C)n(CC(=O)Nc2ccccc2OC)c(=O)c1C#N
→ -3%	3%
> O=C(O)CCN1C(=O)C2C3CC(C2C1=O)C1C(c2ccccc2)c2sc(=O)n(-c4ccccc4)c2SC31 (stereo not given)
→ -10%	9%
> Cc1ccc(C(=O)OCC(=O)NCc2ccco2)cc1C
→ 3%	·
> CCCCC(CC)CNC(=O)Cn1c(=O)[nH]c2ccsc2c1=O (stereo not given)
→ -1%	-3%
> CCn1c(CCCNC(=O)c2ccc(F)cc2)nc2ccccc21
→ -24%	8%
> COc1ccc(N2CCCn3c2nc2c3c(=O)n(CCN3CCOCC3)c(=O)n2C)cc1
→ -3%	-1%
> NC(=O)NCc1cccs1
→ -3%	2%
> Cc1ccc(NS(=O)(=O)c2cccc(C(=O)N3CCCCC3)c2)cc1
→ -2%	·
> Cc1cc(C)c2c(N)c(C(=O)c3ccc(Cl)cc3)sc2n1
→ -10%	1%
> CCO/C=C1\C(=O)N(c2ccc(OCC)cc2)C(=O)c2ccccc21
→ 2%	-3%
> COC(=O)c1ccccc1C(=O)N1CCCC(C(=O)c2cc(F)ccc2F)C1 (stereo not given)
→ -3%	6%
> Cc1ccc2nc(SCc3nnc(-c4cccs4)o3)[nH]c2c1
→ -5%	13%
> CN1CCN(C(=O)/C(=C/c2ccccc2Cl)NC(=O)c2ccccc2)CC1
→ -1%	-8%
> COc1ccc(CC(=S)NCCc2ccccc2)cc1
→ -29%	2%
> Cc1cc(C)cc(NC(=O)CSc2nc(=O)n(CCCN3CCOCC3)c3c2CCCC3)c1
→ -6%	-10%
> COc1cc(NC(=S)N2CCc3ccccc3C2)cc(OC)c1
→ -11%	6%
> O=C(Nc1ccc(Oc2ccc3ccccc3c2)cc1)c1ccco1
→ -13%	7%
> Cc1cc(C(=O)N=Nc2c(O)n(C(C)C)c3ccccc23)n[nH]1
→ -5%	1%

The last four entries of the section above are carried over, then new ones follow:
Each structure is followed by: KAT2A inh	N370S GC
> Cc1cc(C)cc(NC(=O)CSc2nc(=O)n(CCCN3CCOCC3)c3c2CCCC3)c1
→ -6%	-10%
> COc1cc(NC(=S)N2CCc3ccccc3C2)cc(OC)c1
→ -11%	6%
> O=C(Nc1ccc(Oc2ccc3ccccc3c2)cc1)c1ccco1
→ -13%	7%
> Cc1cc(C(=O)N=Nc2c(O)n(C(C)C)c3ccccc23)n[nH]1
→ -5%	1%
> COc1nc(Oc2ccc(C(=O)OCC(N)=O)cc2)nc(N(C)C)n1
→ -8%	-1%
> Cc1ccccc1NC(=O)/C(C#N)=C/c1ccc(-c2ccc(Cl)c(C(=O)O)c2)o1
→ -8%	2%
> Cc1cc(C)cc(N=C(NO)c2cccc([N+](=O)[O-])c2)c1
→ -11%	-9%
> OCC1(Cc2cccc(F)c2)CCN(Cc2cccc3nccnc23)CC1
→ -14%	-4%
> CCOC(=O)N1CCN(S(=O)(=O)c2c[nH]c(C(=O)OC)c2)CC1
→ -1%	-4%
> COc1ccccc1N(CC(=O)NCc1ccco1)S(C)(=O)=O
→ 0%	5%
> COC(=O)c1ccc2c(c1)C(=O)/C(=C/c1ccc(O)cc1)O2
→ 7%	0%
> CCOC(=O)c1[nH]c2c(c1-c1ccccc1)C(=O)CC(c1ccccc1)C2 (stereo not given)
→ -2%	5%
> COc1ccc(C(=O)OC(C)CN2CCOCC2)cc1 (stereo not given)
→ 0%	2%
> Cc1cc(NC(=O)CCC(=O)N(C2CC2)C(C(=O)NC(C)(C)C)c2ccccc2Cl)no1 (stereo not given)
→ -2%	-1%
> O=c1c2ccccc2nc(SCc2ccc(F)cc2Cl)n1CCCN1CCOCC1
→ 3%	-20%
> CC(=O)c1cc(C#N)c(NCCCN(C)C)nc1C
→ -5%	29%
> N#Cc1ccc(C(=O)Nc2ccn(-c3ccccc3)n2)cc1
→ -2%	-5%
> O=C(OC1CCOC1=O)c1cc(Cl)ccc1[N+](=O)[O-] (stereo not given)
→ 2%	0%
> CCCCOC(=O)C(NC(=O)c1ccccc1)=C(C)C
→ -1%	2%
> Cc1cc(C(=O)COC(=O)CN(C)S(=O)(=O)c2ccc(Cl)cc2)c(C)n1CC1CCCO1 (stereo not given)
→ -9%	-4%
> CCCCOc1ccc(S(=O)(=O)NC(=O)NCc2ccc(OCCC)cc2)cc1
→ -7%	5%
> COc1ccc2c(CC(=O)OCC(=O)NC(=O)c3cccn3C)coc2c1
→ -18%	0%
> O=C(NC1CCCC1)C(c1ccc(Cl)cc1)N1CCN(C2CCCCC2)CC1 (stereo not given)
→ 2%	-1%
> CC(C)(C)C(=O)CN1C(=O)NC(c2ccccc2)(c2ccccc2)C1=O
→ -2%	-1%
> CCOc1ccc(OCCNC(=O)c2ccc3c(c2)nnn3CC)cc1
→ -1%	·
> Cc1cc(C)cc(OCC(=O)OCC(=O)N(C)CC(=O)Nc2ccc(F)cc2)c1
→ -4%	4%
> COc1ccc(S(=O)(=O)N2CCOCC2)cc1NC(=O)c1ccc(Cl)cc1
→ -2%	-7%
> COc1ccc(Br)cc1C(=O)Nc1cccc(C)c1C
→ 1%	3%
> Cc1ccc(NC(=O)N2CCCC2C(=O)NCc2cccs2)cc1 (stereo not given)
→ 2%	4%
> CCCCCCCC(=O)N/N=C(\C)c1ccc(O)cc1O
→ -2%	7%
> COc1ccccc1NC(=O)C1CCC(CNS(=O)(=O)c2ccc3c(c2)CC(C)N3C(C)=O)CC1 (stereo not given)
→ -10%	·
> CCc1ccc(-n2nc(CO)c(C(=O)NC)n2)cc1
→ -4%	·
> CCc1noc(C)c1C(=O)Nc1cccc2ncccc12
→ 2%	-3%
> Cc1cc(=O)n(C(C)C(=O)NCc2ccccc2Cl)c2c1c(C)nn2-c1ccccc1 (stereo not given)
→ -5%	·
> O=C(NCc1cccc(F)c1)c1ccc2nc(N3CCCCC3)sc2c1
→ -2%	·
> COc1ccc(/C=C2/SC(=O)NC2=O)cc1
→ 1%	2%
> O=S1(=O)CCOC[C@H](c2ccccc2)N1Cc1ccccc1
→ -4%	-6%
> CCCN(CCC)CCCNC(=O)c1ccc(CS(=O)(=O)c2c(Cl)cccc2Cl)o1
→ 11%	22%
> COc1ccc(N(CC(=O)N2CCCCCC2)S(=O)(=O)c2c(C)[nH]c(=O)[nH]c2=O)cc1
→ 3%	-1%
> CCSCCOC(=O)C1=C(C)N(C)C(=O)NC1c1ccc2c(c1)OCO2 (stereo not given)
→ 3%	-13%
> Cc1cccc(NC(=O)C[n+]2ccc(N(C)C)cc2)c1
→ -2%	3%
> COc1cc(CN2CCNC(=O)C2CC(=O)NC2CCC2)cc(OC)c1 (stereo not given)
→ -5%	-3%
> O=S1(=O)CCC(NC(=S)SCc2ccccc2Br)C1 (stereo not given)
→ -15%	10%
> Cc1cc(OCC(=O)NNC(=O)c2cccnc2)cc(C)c1Cl
→ -3%	-12%
> Cc1ccc(S(=O)(=O)CCC(=O)OCC(=O)Nc2cc(F)ccc2C)cc1
→ 5%	0%
> COc1ccc(N2CCN(C(=O)CC3NC4CCCCC4NC3=O)CC2)cc1 (stereo not given)
→ -20%	1%
> O=C(Nc1cccn2ncnc12)c1ccc(Cl)cc1Cl
→ -4%	4%
> COc1ccc(-c2nnc(SCCC(=O)O)n2-c2ccccc2)cc1
→ -3%	23%
> CCN(CC)CCN(C(=O)c1ccc2ccccc2c1)c1nc2cc3c(cc2s1)OCO3
→ -4%	-5%
> CCc1ccc(N(CC(=O)O)S(=O)(=O)c2c(C)noc2C)cc1
→ -4%	-10%
> Cn1c([N+](=O)[O-])cnc1COC(N)=O
→ -4%	4%
> C=CCn1c(C#N)c(N)sc1=N
→ 0%	-2%
> CCOC(=O)c1cc2c(nc1N)CC(C)(CC)OC2 (stereo not given)
→ -2%	6%
> CCC(C)(C)NC(=O)C(c1ccco1)N(C(=O)Cn1nnc2ccccc21)c1ccc2c(c1)OCO2 (stereo not given)
→ -12%	4%
> CCCNC(=O)CS(=O)Cc1nc(-c2cccc(OC)c2)oc1C (stereo not given)
→ -1%	5%
> O=C(N/N=C/c1ccc(Cl)cc1Cl)c1cccc(F)c1
→ -2%	5%
> CSc1ccccc1-c1nnc(-c2ccc(Cl)c(Cl)c2)o1
→ -4%	5%
> O=C(COC(=O)c1ccco1)NCCNC(=O)COC(=O)c1ccco1
→ -4%	-4%
> O=C(CSc1ccccc1)Nc1cccc(NC(=O)c2ccco2)c1
→ -8%	15%
> COc1cccc(C(=O)NNC(=O)c2ccc(NS(=O)(=O)c3cccs3)cc2)c1OC
→ 0%	-8%
> NC(=O)CN1CCOCCN(CC(N)=O)CCOCC1
→ 2%	14%[2.35 µM]
> CCOCCCNC(=O)Cn1cnc2c(cnn2-c2ccc(C)c(C)c2)c1=O
→ -11%	-16%
> O=C(NCC1CCCO1)C1CC(c2ccccc2Cl)=NO1 (stereo not given)
→ 2%	-15%
> Cc1cc(C)c(S(=O)(=O)n2ccc3ccccc32)c(C)c1
→ -22%	11%

Five compounds drawn at random from the list so far, as already listed:
Each structure is followed by: KAT2A inh	N370S GC
> CCSCCOC(=O)C1=C(C)N(C)C(=O)NC1c1ccc2c(c1)OCO2 (stereo not given)
→ 3%	-13%
> COc1ccc(N(CC(=O)N2CCCCCC2)S(=O)(=O)c2c(C)[nH]c(=O)[nH]c2=O)cc1
→ 3%	-1%
> NC(=O)CN1CCOCCN(CC(N)=O)CCOCC1
→ 2%	14%[2.35 µM]
> O=C(NCc1cccc(F)c1)c1ccc2nc(N3CCCCC3)sc2c1
→ -2%	·
> Cn1c([N+](=O)[O-])cnc1COC(N)=O
→ -4%	4%

Going on with the list.
Each structure is followed by: KAT2A inh	N370S GC
> Cc1oc2c(cc(NS(=O)(=O)c3ccc4c5c(cccc35)C(=O)N4)c3ccccc32)c1C(=O)OC(C)C
→ -9%	16%
> CCN(CC(=O)Nc1ccc2c(c1)OCCO2)C(=O)COc1ccc(C)cc1
→ -11%	-5%
> CCOc1ccc(OCC(=O)OCC(=O)Nc2ccc3[nH]c(=O)[nH]c3c2)cc1
→ 14%	-14%
> CC1CCN(S(=O)(=O)c2ccc(C(=O)N3CCCCC3C(=O)O)cc2)CC1 (stereo not given)
→ 0%	·
> COc1cc(Cl)c(C)cc1NC(=O)COC(=O)c1cnc(C)cn1
→ -10%	5%
> CC1=CC(C)(C)N(S(=O)(=O)c2ccc(F)cc2)c2ccccc21
→ 0%	-27%
> O=C(O)c1ccc(C(=O)Nc2cccc3ccccc23)c(C(=O)O)c1
→ -27%	?
> Cc1cc(C)nc(NNS(=O)(=O)c2c(F)cc(F)cc2Br)n1
→ 1%	·
> O=[N+]([O-])c1ccccc1CNCCCCO
→ 1%	-6%
> COc1cccc(/C=N/NC(=O)c2nnn(-c3nonc3N)c2CN(C)c2ccccc2)c1
→ ?	30%
> COc1ccc(-n2cc(CN3CCC(OC)CC3)c(-c3cccc(F)c3)n2)cc1
→ 4%	18%
> Cc1cccc(C)c1NC(=O)CN(C)C(=O)/C=C/c1cccs1
→ 2%	0%
> CCOc1cccc(OCCCNCCCOC)c1
→ -1%	-1%
> CCC(=O)Nc1cc2c(C)cc(=O)oc2cc1C
→ 0%	1%
> COc1ccccc1NC(=O)C(=O)N(c1cccnc1)C(C(=O)NC(C)(C)C)c1ccccc1F (stereo not given)
→ 0%	-3%
> N#CCCN(Cc1ccccc1)C(=O)Nc1ccc2c(c1)CCO2
→ -2%	5%
> CCOC(=O)C1(Cc2cccc(Cl)c2)CCCN(C(=O)c2cc(C)on2)C1 (stereo not given)
→ ?	-3%
> Cc1ccc2c(c1)C(C)CC(C)(C)N2C(=O)CN1CCN(C)CC1 (stereo not given)
→ -1%	0%
> COc1ccc(CCNC(=O)c2c(C)noc2C)cc1
→ 0%	6%
> CC(=O)Oc1ccc(-c2ccc(C(=O)O)cc2)cc1
→ -4%	3%
> Cc1cc(C)c2cc3c(ccn3C3OC[C@H](O)[C@H](O)[C@H]3O)cc2n1 (stereo not given in full)
→ ?	5%
> O=C(C1CCN(Cc2ccc(Cl)cc2)CC1)N1CCN(Cc2ccc3c(c2)OCO3)CC1
→ 1%	-3%

A portion of the library, and most or all hits are left out here.
